Biofilm kill mix = mixture kills Candida albicans biofilm cells; C. albicans biofilm persisters + clotrimazole, fluorescence viability; primary screen in compound mixtures of four per well; inhibition, % at 7.6 µM; 0.02% of 120,000 active;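 active = inhibition above 30.3% in the primary screen of four-compound pools, then above 30% when the compound was retested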;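 also: compounds exposed to preformed 24 h biofilms for 48 h; the number belongs to the whole pool; some results filed as inactive read as strong as hits; inactives centre near 12; 0% = biofilm with clotrimazole alone and 100% = kill control; retested singly at about 60 µM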
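Probe or stimulus – Clotrimazole 50 µg/mL co-treatment · System – C. albicans biofilms · Schedule – 24 h biofilm formation, then 48 h compound exposure, 37 °C · Evaluation – percent inhibition of biofilm viability · Technique – 2-h Alamar Blue fluorescence, 535/590 nm excitation/emission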
* marks the source's active call; other numbers are inactive results. The list is partial. The share of hits here may be higher or lower than overall.

The first 3 compounds, to show the layout:
SMILES	Biofilm kill mix
CC(NCc1cc(Br)ccc1OCC(=O)NCc1ccccc1)c1ccccc1 (stereo not drawn)	12.7
Cc1nc(-c2cn[nH]c2-c2ccc(O)cc2O)cs1	7.7
COc1ccc(C(=O)Nc2cccnc2)cc1C(=O)Nc1cccnc1	-8.2

This part in full, repeating the preview:
SMILES	Biofilm kill mix
CC(NCc1cc(Br)ccc1OCC(=O)NCc1ccccc1)c1ccccc1 (stereo not drawn)	12.7
Cc1nc(-c2cn[nH]c2-c2ccc(O)cc2O)cs1	7.7
COc1ccc(C(=O)Nc2cccnc2)cc1C(=O)Nc1cccnc1	-8.2
CCOC(=O)N1CCN(C(=O)/C=C/c2ccc([N+](=O)[O-])cc2)CC1	11.1
CC(C)N(C(=O)Nc1ccc2nsnc2c1)C(C)C	12.9
O=C(N/N=C/c1ccc([N+](=O)[O-])o1)c1cn2ccc3ccccc3c2n1	17.4
CN(c1cccc(NC(=O)COc2ccc(Cl)cc2Cl)c1)S(C)(=O)=O	18.2
COc1ccc(N2CCCn3c2nc2c3c(=O)n(Cc3ccc(C)cc3)c(=O)n2C)c(OC)c1	17.0
C=C(C)c1cccc(C(C)(C)NC(=O)NCCN(CC)CC)c1	10.6
COc1ccc(/C=C/C(=O)c2ccc(OC)cc2OC)c(OC)c1	1.0
O=C(O)c1cc(N/N=C/c2ccncc2)ccc1Cl	14.1
CCOc1ccc(/C=N/NC(N)=S)cc1	25.2
COc1ccc(C(=O)C2CCCN(C(=O)c3cccnc3SC)C2)c(C)c1 (stereo not drawn)	22.8
O=C(CSc1ccc([N+](=O)[O-])cc1)NCC1CCCCC1	8.1
CC(C)(O)C1Cc2cc(/C=C/C(=O)O)c(O)cc2O1 (stereo not drawn)	18.8
COc1cccc(C2C3=C(N=c4s/c(=C\c5ccccc5O)c(=O)n42)c2ccccc2CC3)c1OC (stereo not drawn)	17.8
CCN(Cc1cnn(C)c1)Cc1nc(C2(c3ccc(C)cc3)CCCC2)no1	12.2
CN(C)CCNC(=O)/C=N/O	7.4
Cc1cc(C(=O)NNC(=O)C2CCCC2)c(C)o1	11.9
COc1ccc(NC(=O)CC2C(=O)N(C)C(=S)N2Cc2ccncc2)cc1 (stereo not drawn)	2.1
Cc1cccc(NC(=O)c2ccc(CN3CCN(Cc4ccccc4)CC3)cc2)c1	14.0
COc1cc(/C=N/N=C2/C(=O)Nc3ccccc32)cc(OC)c1O	21.0
Cc1oc(-c2cccs2)nc1CN1CCC(c2ccccc2)CC1	12.6
O=S(=O)(c1ccc(NC(=S)N/N=C/c2cccc(Oc3ccccc3)c2)cc1)N1CCOCC1	-3.0
COc1ccccc1CNC(=O)COC(=O)/C=C/c1cccs1	11.9
CCOC(=O)C(C)(C)N(Cc1cccc(C)c1)S(=O)(=O)c1ccc(Cl)c([N+](=O)[O-])c1	-2.0
O=C(O)CNC(=O)CC1S/C(=N/N=C/c2ccccc2O)NC1=O (stereo not drawn)	8.3
CN(C)C=Nc1c(C(=O)c2ccccc2)sc2nccc(N(C)C)c12	9.2
O=C(O)c1cccnc1SCc1cn2cc(Cl)ccc2n1	18.4
COc1ccc(N=C/C=C2\C=C(c3ccccc3)OC(C)(C)O2)cc1	14.9
CCOC(=O)c1c(NC(C)=O)sc2c(O)cccc12	10.1
Cc1cc(C(=O)Nc2ccc(F)cc2C)n(-c2ccccc2)n1	18.5
CCCCNC(=O)C1CCCN1C(=O)NC1CCCCC1 (stereo not drawn)	18.6
CCOC(=O)c1nn(-c2ccccc2)c2nnc(Cc3ccccc3)c(=O)n12	6.2
O=C(Nc1ccc(CSc2ccccc2)cc1)c1ccc(CN2CCOCC2)cc1	7.1
COc1ccc(C(C#N)N2N=C(c3ccccc3)CC2c2ccccc2)cc1OC (stereo not drawn)	3.9
CCSc1nnc(NC(=O)c2cccc(S(=O)(=O)N(C)c3ccccc3)c2)s1	10.8
CCCC(C1=C(O)CC(C)(C)CC1=O)C1C(=O)CC(C)(C)CC1=O (stereo not drawn)	4.3
CCc1c(C)nc(SCc2ccccn2)[nH]c1=O	17.8
CCCn1nnnc1NC(=O)c1ccc2ccccc2c1	14.4

Overlap with the part before: 2 compounds; new compounds follow.
SMILES	Biofilm kill mix
CCc1c(C)nc(SCc2ccccn2)[nH]c1=O	17.8
CCCn1nnnc1NC(=O)c1ccc2ccccc2c1	14.4
CC(=O)NNC(=O)c1csc(Cc2c(Cl)sc3ccc(Cl)cc23)n1	29.5
O=C(NC1CC1)c1ccc(CN(c2ccccc2)S(=O)(=O)c2ccccc2)cc1	-4.8
Cc1cccc(C(=O)NN2S(=O)(=O)c3ccccc3S2(=O)=O)c1	19.0
CN(C)C(=S)Nc1ccc([N+](=O)[O-])cc1	3.1
Cc1nc(-c2noc(-c3cccc(Cl)c3)n2)c(C(F)(F)F)o1	1.3
Cc1ccc(-c2nn(C)c(=O)c3ccccc23)cc1CNC(=O)c1ccccc1	14.8
CCOC(=O)c1cc2[nH]c3ccccc3c2[n+](-c2ccc([N+](=O)[O-])cc2)c1N	8.2
CC(C)c1nnc(SCC(=O)Nc2ccc3c(c2)OCO3)n1C	-9.6
COc1ccc(/C=C/C(=O)Nc2ccc(-n3nncc3-c3ccccc3)cc2)cc1OC	11.6
NC(=O)COC(=O)c1cccc(S(=O)(=O)N2CCCCC2)c1	7.2
CC1=NN(C(N)=S)C(=O)C1N=Nc1cccc2ccccc12 (stereo not drawn)	5.7
O=C(CN1CCCCCCC1)Nc1cccc(Cl)c1Cl	7.7
COc1ccc(/C(C)=N/Nc2ccc(C(=O)O)cc2)c(OC)c1	8.8
O=C(NCCS(=O)(=O)c1ccc(Cl)cc1)c1ccc(F)cc1	17.8
Cc1n[nH]c(C)c1S(=O)(=O)N1CCCC(C(=O)NC2CCCCC2)C1 (stereo not drawn)	14.1
COc1ccc(C2C(C(=O)N3CCC(C(N)=O)CC3)CC(=O)N2c2ccc(OC)cc2)cc1 (stereo not drawn)	10.2
Cc1cc(NC(=O)CSc2ccc3nnc(CCNC(=O)c4ccccc4)n3n2)no1	11.7
CCN(CC)c1cc(C)c2cc(NC(=O)c3ccccc3OC)ccc2n1	13.8
CCn1c(C)nc2cc(C(=O)N/N=C/c3ccc(O)cc3)ccc21	9.9
Cc1cc(-c2nnc(SCC(=O)c3ccc4c(c3)OCCO4)o2)no1	14.5
COc1ccc(NC(=O)Nc2ccc(F)cc2)c(C)c1	-1.2
CC(=O)c1ccc(NC(=O)Nc2ccc3c(c2)nc(C)n3C)cc1	18.6
CCCCN(CCCC)CC(O)COc1ccccc1C(=O)Nc1ccccc1 (stereo not drawn)	13.6
O=C(Nc1cccc(C(F)(F)F)c1)c1cc2c(s1)-c1ccccc1OC2	8.3
COC(=O)CCSCC(=O)N1N=C(c2ccc(OC)cc2)CC1c1cccc(OC)c1OC (stereo not drawn)	25.4
COc1ccc(-c2coc3cc4oc(=O)cc(-c5ccccc5)c4cc23)cc1F	-0.7
CC12CCC(C(=O)Nc3ccc(Br)cn3)(OC1=O)C2(C)C (stereo not drawn)	13.8
Cc1ccc(O)c(N=Nc2ccc(S(=O)(=O)N3CCOCC3)cc2)c1	25.8
COc1ccc2c(-c3ccccc3)cc(SCC(=O)NC(N)=O)nc2c1	0.0
CCOc1ccc(NC(=O)CC2C(=O)Nc3ccccc3N2C(=O)c2ccccc2)cc1 (stereo not drawn)	3.1
COc1ccccc1NC(=O)c1c([N+](=O)[O-])c(C(C)(C)C)nn1C	5.4
Cc1ccc(C(=O)n2c(N)nc3ccccc32)cc1	12.5
O=C(O)CCC(=O)N(Cc1ccco1)C1CC(=O)N(c2ccccc2)C1=O (stereo not drawn)	16.9
CC1=NN2C(=N)/C(=C\c3cc(C)n(Cc4ccccc4)c3C)C(=O)N=C2S1	22.9
CC1=C(C(=O)Nc2ccccc2)C(c2ccccc2[N+](=O)[O-])NC(=O)N1 (stereo not drawn)	16.2
O=C(Nc1ccccc1)C1CCCN1C(=O)Nc1ccccc1[N+](=O)[O-] (stereo not drawn)	2.0
O=C(O)c1cc(NC(=O)c2ccccc2[N+](=O)[O-])ccc1O	15.6
CN1CCCC(C#CC(O)(c2ccccc2)c2ccccc2)C1 (stereo not drawn)	9.3
CCN(CC)C(=O)CC(c1cc(OC)c(OC)c(OC)c1)c1c(OC)cc(OC)c2ccc(=O)oc12 (stereo not drawn)	23.7
NC(=S)N/N=C/c1ccc(-c2ccc(SC(F)F)cc2)o1	11.5
O=C1CSC(c2ccccn2)N1c1ccc(C(F)(F)F)cc1 (stereo not drawn)	33.3
Cc1cc(=O)[nH]c(SCC(=O)Nc2nc3ccccc3s2)n1	13.2
Cc1cccc2cc(CN(CCCN(C)C)C(=S)NCCc3ccccc3)c(=O)[nH]c12	25.6
Cc1cc(NS(=O)(=O)c2ccc(NC(=O)CSc3nnc(-c4ccco4)n3N)cc2)nc(C)n1	4.5
O=C(COC(=O)c1ccc([N+](=O)[O-])o1)Nc1nc2ccccc2s1	19.5
Cc1cc(/C=N/NC(=O)C(=O)NCc2ccccn2)c(C)n1-c1ccccc1	5.6
Cc1c(C(c2ccc(N(C)C)cc2)c2c(C)n(C)n(-c3ccccc3)c2=O)c(=O)n(-c2ccccc2)n1C	10.9
S=c1[nH]nc(-c2ccccn2)n1/N=C/c1cccs1	20.2
CN1c2ccccc2C(=O)NC1c1ccc(Cl)cc1 (stereo not drawn)	9.0
COc1ccc(S(=O)(=O)N2CCCc3ccccc32)cc1OC	24.6
Cc1ccc(NS(=O)(=O)c2ccc(/C=C/C(=O)O)cc2)cc1Cl	15.2
O=C(O)/C=C/C(=O)Nc1ccc(OC(F)(F)F)cc1	15.7
Oc1ccc(/C=N/Nc2nc(N3CCCCCC3)nc(N3CCCCCC3)n2)c(O)c1	0.9
OC(COc1cccc2ccccc12)CN1CCN(c2cccc(Cl)c2)CC1 (stereo not drawn)	20.7
CC(/C=C1\SC(=S)N(NS(=O)(=O)c2ccc(C)cc2)C1=O)=C\c1ccccc1	24.4
O=c1[nH]c(CSc2ncccn2)nc2c1cnn2-c1ccccc1	11.7
Cc1cc(C)nc(SCC(=O)Nc2nc(-c3ccccc3)c(-c3ccccc3)o2)n1	14.9
CC1CCN(C(=O)CN(c2ccccc2)S(=O)(=O)N(C)C)CC1	-5.2
CC(=O)c1cccc(CN2CCCC(C(=O)c3ccc4c(c3)OCO4)C2)c1 (stereo not drawn)	-0.6
COC(=O)/C=C/C(=O)Nc1ccc(O)c(Cl)c1	16.7

Following part.
SMILES	Biofilm kill mix
Cn1c(SC(C(=O)Nc2ccc(F)cc2)c2ccccc2)nc2ccccc21 (stereo not drawn)	0.4
CN(C)/C=C/C(=O)c1ccccc1OCc1cnc(Cl)s1	15.6
CCN1CCN(Cc2ccc(NC(=O)c3cc(NC(=O)c4cc(-c5ccc(OC)cc5)n[nH]4)cc(OC)c3)cc2C(F)(F)F)CC1	14.6
Cn1c(SCC(=O)N2CCCc3ccccc32)nc2cccnc21	13.6
CCCCNC(=O)c1ccc(Cn2c(=S)[nH]c3c([nH]c4ccc(OC)cc43)c2=O)cc1	3.7
CCNc1nc(NC(C)C)nc(Oc2ccc(OCc3ccccc3)nn2)n1	7.2
CCN(CC(=O)NCc1ccc(F)cc1)C(=O)/C=C/c1ccco1	13.1
COc1ccc(C(=O)CSc2nc(-c3ccccn3)nc(C)c2Cl)cc1	10.4
Cc1ccc(NS(=O)(=O)c2ccc(NC(=O)CN(c3cc([N+](=O)[O-])ccc3C)S(C)(=O)=O)cc2)c(C)c1	12.3
CCc1cccc2c(C(=S)N3CCOCC3)c[nH]c12	8.3
Cc1ccccc1N1C(=O)C(Oc2ccc(Cl)cc2)C1CNCC1CCCO1 (stereo not drawn)	15.7
CCN(CC)S(=O)(=O)c1cc(C(=O)NCCN2CCOCC2)ccc1Cl	13.4
c1ccc(CCNc2nc(-c3ccncc3)cs2)cc1	5.4
COc1cc(C=O)ccc1OS(=O)(=O)c1ccccc1[N+](=O)[O-]	-3.9
O=C(/C=N/NC(=O)c1ccc(Cl)cc1Cl)c1ccccc1	16.2
c1csc(-c2ccn[nH]2)c1	13.1
CC1=CCCC(C)(C)C1/C=C/C(C)=N/NC(=O)c1ccncc1 (stereo not drawn)	15.7
COc1ccc(NS(=O)(=O)c2cc(NC(=O)CNC(=O)c3ccc(C)s3)ccc2Cl)cc1	6.0
Cc1ccc(S(=O)(=O)N/N=C/c2cccc(OC3CSC3)c2)cc1	22.0
CCOc1ccc(/C=N/NC(=O)CC(=O)Nc2ccc(Cl)c(Cl)c2)cc1	2.2
CCC1=C2CC[C@H]3C(=O)N(c4ccccc4)C(=O)[C@H]3[C@H]2[C@@]2(C)C(=NCC3CC3)OC(=O)N2C1=O	9.0
COc1cc(/C=N/NC(=O)Cc2csc(C)n2)ccc1OCC(C)C	-1.7
COC(=O)N/N=C/c1cccs1	23.3
Cc1nonc1C(=O)N/N=C/c1cccc(O)c1	13.7
O=C(Nc1cccc(S(=O)(=O)N2CCOCC2)c1)c1ccccn1	14.9
COC(=O)c1cc(=O)c2cccc(OC)c2[nH]1	24.1
O=C(COc1ccc(Br)cc1)N/N=C1/SCC(=O)N1Cc1ccco1	13.2
NS(=O)(=O)c1cccc(NC(=O)CN2CCc3ccccc32)c1	12.3
O=C(c1cc([N+](=O)[O-])cc([N+](=O)[O-])c1)N(c1ccccn1)c1ccccn1	-1.7

Three compounds drawn at random from the list so far:
SMILES	Biofilm kill mix
NS(=O)(=O)c1cccc(NC(=O)CN2CCc3ccccc32)c1	12.3
Cc1nonc1C(=O)N/N=C/c1cccc(O)c1	13.7
O=C(COc1ccc(Br)cc1)N/N=C1/SCC(=O)N1Cc1ccco1	13.2

Of the compounds above, three contain bromine.
SMILES	Biofilm kill mix
CC(NCc1cc(Br)ccc1OCC(=O)NCc1ccccc1)c1ccccc1 (stereo not drawn)	12.7
CC12CCC(C(=O)Nc3ccc(Br)cn3)(OC1=O)C2(C)C (stereo not drawn)	13.8
O=C(COc1ccc(Br)cc1)N/N=C1/SCC(=O)N1Cc1ccco1	13.2
